TRPML1 ag = activates the human TRPML1 channel | Q9GZU1 | TRPML1-expressing cells, Ca2+ dye fluorescence, FDSS; host cell line not named in the record; reference of the full effect not given here | activation, % (no concentration beside the values) | 410,000 compounds, 0.12% hits | AID 624414; in the data active = activation above about 50%; inconclusive = about 30% to 50%; inactive = below about 30%; also: 0% is about no effect; the text of the record puts the active cut at 80%
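Cells: TRPML1-DL, 1X Tet inducer, ~16 h at 37 degrees C/5% CO2. Dye: ABD Ca8 no-wash + quencher, 45-90 min RT. Read: 10 s baseline, compound add, 110 s agonist phase; 54-4 EC80 (4uM final), 110 s antagonist phase.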
TRPV1 PAM = enhances activation of the human vanilloid receptor TRPV1. Q8NER1. TRPV1-expressing cells, Fluo-8 calcium influx, capsaicin EC20 potentiation; host cell line not named in the record; control for the full effect not named in the record. potentiation, % at 8.33 µM. 320,000 compounds, 0.02% hits; active means potentiation above 80%; inconclusive means 30% to 80%; inactive means below 30%; also: 0% is about no effect
Target sequence (Q8NER1 whole entry, looked up): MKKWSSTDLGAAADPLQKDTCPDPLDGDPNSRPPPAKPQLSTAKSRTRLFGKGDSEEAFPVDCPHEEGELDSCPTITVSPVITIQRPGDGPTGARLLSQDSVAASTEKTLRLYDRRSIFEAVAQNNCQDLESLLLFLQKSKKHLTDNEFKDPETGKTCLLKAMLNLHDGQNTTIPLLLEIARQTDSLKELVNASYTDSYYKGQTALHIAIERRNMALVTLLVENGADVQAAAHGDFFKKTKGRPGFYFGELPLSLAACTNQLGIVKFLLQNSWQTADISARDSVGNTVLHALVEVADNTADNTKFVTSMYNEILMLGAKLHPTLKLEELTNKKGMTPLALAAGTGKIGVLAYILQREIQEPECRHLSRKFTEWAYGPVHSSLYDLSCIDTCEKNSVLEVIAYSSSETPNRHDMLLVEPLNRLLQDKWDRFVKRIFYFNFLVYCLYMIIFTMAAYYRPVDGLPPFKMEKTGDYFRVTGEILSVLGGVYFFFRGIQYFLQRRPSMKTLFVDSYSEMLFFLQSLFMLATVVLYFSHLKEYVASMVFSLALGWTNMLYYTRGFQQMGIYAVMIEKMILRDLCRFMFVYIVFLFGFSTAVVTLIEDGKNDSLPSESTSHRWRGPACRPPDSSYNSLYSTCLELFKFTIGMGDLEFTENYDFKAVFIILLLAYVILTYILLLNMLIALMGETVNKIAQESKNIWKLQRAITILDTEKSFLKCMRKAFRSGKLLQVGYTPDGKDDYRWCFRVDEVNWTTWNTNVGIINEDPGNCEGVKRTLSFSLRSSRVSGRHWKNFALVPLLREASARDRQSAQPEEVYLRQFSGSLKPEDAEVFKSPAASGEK
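TRPV1-expressing cells were cultured overnight at 35.5C and loaded with Fluo-8 calcium dye for 40 to 90 min at room temperature. After a 10 s baseline, compound was added and calcium influx was read kinetically for 3 min (ex 480/em 520 nm).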
Menin-MLL FL inh = inhibitors of human menin-MLL interaction, wild-type MLL peptide. Fluorescence polarization, fluorescein-MLL peptide displacement from menin. FP activity change, % at 61.4 µM. 290,000 tested, under 10 active. AID 1766; inconclusive = falling polarisation curve, or a change in total fluorescence; inactive = total fluorescence flat and polarisation flat or rising; no compound was filed as active; the % refers to the polarisation; negative = inhibition;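 also: % of control where 0% means no effect; inhibitors lower the polarisation; unlabelled MLL peptide was the positive control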
Sfp PPTase inh = blocks B. subtilis Sfp PPTase activity. Q9F4F7. Biochemical Sfp PPTase activity, qHTS. Potency, µM, for the others: max response, negative = inhibition, actives largely listed as inhibitors. 310,000 compounds, 3.5% hits. AID 1490; active = well fitted inhibition curve with a large enough effect; inconclusive = small, poorly fitted or top-dose-only effect, or another doubt; inactive = no such curve, though single readings can be large or run the other way;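 also: the enzyme is Sfp with the accession as filed and its product quenches rhodamine fluorescence; potency is read from the fitted curve at half-maximal effect; 0% = enzyme reaction without inhibitor and -100% = no enzyme wells; top concentration of the series not given in the record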
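Fluorescence-quenching assay: 15 nM Sfp-PPTase preincubated 15 min at room temperature with compound, then 5 uM rhodamine-CoA and 12.5 uM BHQ-2-labelled YbbR peptide added. Fluorescence (ex 525/em 598 nm) read at start and after 30 min; difference gives rate.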
PINK1 modulator = changes PINK1 expression; PINK1 immunofluorescence, high-content cytometry, 24 h; Potency, µM (doses to about 76.6 µM), for the others: at the highest dose activation (PINK1 increase), most hits filed as activators; 410,000 compounds, 0.2% hits; AID 624263; active = well fitted activation curve with a large enough effect; inconclusive = small, poorly fitted or top-dose-only effect; inactive = flat fitted curve, though single readings scatter; cell line not stated here;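 also: potency is read from the fitted curve at half-maximal effect; % of control where 0% means no effect; nearly all actives have a fitted effect of over 65% in size; a mitochondrial uncoupler was the plate control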
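A stable cell line was treated with compounds at 5 concentrations for 24 hours, with CCCP as control. PINK1 levels and mitochondrial localization were measured by immunofluorescence with mitochondrial, cell and nuclear markers after fixation, read by laser-scanning cytometry.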
ClpP mod = qHTS Assay for Activators of ClpP; ATP-dependent Clp protease proteolytic subunit (Bacillus subtilis (strain 168)), P80244; purified B. subtilis ClpP, FRET peptide cleavage, 20 min; Potency, µM (highest dose often 57.5 µM), inactives show at the highest dose activity change, negative = active; 340,000 compounds, 1.9% hits; active = well fitted falling curve with a large enough effect; inconclusive = small, poorly fitted or top-dose-only effect; inactive = no such curve, though single readings can be large or run the other way; also: potency is read from the fitted curve at half-maximal effect; the source files actives as falling curves though it sought activators and does not explain the sign; nearly all actives have a fitted effect of over 65% in size; many hits overshoot -100%
Target sequence (P80244 whole entry, looked up): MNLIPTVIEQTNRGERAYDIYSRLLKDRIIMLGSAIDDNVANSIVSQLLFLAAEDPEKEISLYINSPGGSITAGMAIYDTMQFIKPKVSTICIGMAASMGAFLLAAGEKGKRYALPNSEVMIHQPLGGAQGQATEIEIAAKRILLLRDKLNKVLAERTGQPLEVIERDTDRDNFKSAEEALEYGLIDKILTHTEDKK
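ClpP 10 microg/mL final, pH 8 Tris/KCl buffer with BSA, glycerol, Tween-20; compound pinned in; FRET-FV substrate; RT 20 min; Ex320/Em430; ΔFRET vs ADEP 5.8 microM, DMSO, no enzyme.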
TRPML1 inh = blocks the human TRPML1 channel. Q9GZU1. TRPML1-inducible cells, Ca2+ dye fluorescence, FDSS; hits give low values; inhibition of EC80 agonist-evoked calcium signal. activity change, negative = inhibition, % (concentration not given with the values). 390,000 compounds, 0.02% hits. AID 624415; in the data active means activity change below about -50%; inconclusive means about -30% to -50%; inactive means above about -30%;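 also: stimulus is agonist 54-4 at its EC80 concentration; % is scaled to controls: 0 for no effect and ±100 for the full control effect; the text of the record puts the active cut at -80%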
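TRPML1-DL cells, Tet-induced overnight (~16 h, 37 °C) at 1,500 cells/well, were loaded with Ca8 no-wash dye plus quencher for 45-90 min at room temperature. Compounds were pinned during FDSS kinetic reading; agonist 54-4 at EC80 (4 uM final) then added.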
Starred values were filed as active, the others as inactive; ? = inconclusive; nt = no result given; & = joins results of further samples; [ ] = dose if it differs, or a comment. The order is random; about 4.4% have a hit in one of these screens.

SMILES	TRPML1 ag	TRPV1 PAM	Menin-MLL FL inh	Sfp PPTase inh	PINK1 modulator	ClpP mod	TRPML1 inh
CCc1nc2ccccc2n1CC(O)COc1ccc(NC(C)=O)cc1 (stereo not given)	1.4	-2	0.4	-9%	-2.8%	3.3%	7
Cc1ccc(N(C(=O)CNC(=O)c2ccco2)C(C(=O)NC2CCCC2)c2cccnc2)cc1C (stereo not given)	-0.9	-5	-6.1	8%	-1.3%	0.8%	-5
O=C(O)c1ccc(Oc2cccc([N+](=O)[O-])c2)cc1C(=O)O	-0.4	-9	6.1	9%	-0.2%	1.7%	7
CC(/C=C/c1ccco1)=N/NC(=O)CNc1ccccc1C	1.5	-2	-0.8	50µM*	6.6%	nt	33
CN1CCN(C(=O)CSc2cc(=O)n(C)c3ccccc23)CC1	0.3	-2	2.5	-4%	3.9%	-11%	-11
CC(=O)Nc1cc(-c2cccc(NS(C)(=O)=O)c2)cn2c(-c3cccc(C(C)=O)c3)cnc12	-1.0	nt	nt	nt	2.7%	-19%	nt
CC(CN1CCOCC1)OC(=O)c1cccc(Br)c1 (stereo not given)	-0.2	11	-3.2	18%	3.9%	0.1%	-9
COC(=O)C1=CN(CC2CCCO2)C=C(C(=O)OC)C1c1cc(OC)c(OC)c(OC)c1 (stereo not given)	-0.4	23	-0.3	-3%	nt	25µM*	-4
CCCOc1ccc(-c2c(=O)n(OCc3ccc([N+](=O)[O-])cc3)c3ccccc3[n+]2[O-])cc1	0.4	6	15	15%	?	28µM*	20
CC12CCC=CC1C(c1ccc3ccccc3c1C=Cc1ccccc1)N(Cc1ccccc1)C2=O (stereo not given)	1.2	nt	-1.0	0%	nt	nt	7
Cc1cc(C(=O)CSc2nc3ccccc3[nH]2)c(C)n1CC1CCCO1 (stereo not given)	-0.6	25	-1.2	-12%	3.4%	1.4%	-22
OCC1OC(Oc2c[nH]c3ccccc23)C(O)C(O)C1O (stereo not given)	-0.1	0	nt	nt	1.9%	-24%	-2
O=S(=O)(NCCC1=CCCCC1)c1cccc(Br)c1	1.6	10	nt	nt	11%	-3.2%	-3
Cc1ccc(N2CC(C(=O)Nc3ccc(N(C)C)cc3)CC2=O)cc1Cl (stereo not given)	0.3	nt	nt	nt	-3.6%	1.2%	8
CCCCc1cc2c(c(NC(=O)CC)n1)c(=O)oc1ccccc12	0.5	-7	1.6	6%	8.7%	?	1
O=C(Nc1ccn(Cc2ccc(Cl)cc2)n1)c1ccccc1	1.2	-3	-0.9	7%	-1.5%	-20%	44
COc1cc(CSc2ncc(CO)n2Cc2ccc(C)cc2)cc(OC)c1	-0.1	nt	nt	nt	1.4%	4.1%	-6
O=Cc1cccn1-c1sc2c(c1C(=O)O)CCCC2	0.3	-7	3.1	?	-0.2%	1.2%	2
CC(=O)N1CCC2(CCN(Cc3cc(C(F)(F)F)cc(C(F)(F)F)c3)CC2)CC1	nt	nt	-7.3	5%	-0.4%	nt	nt
CC(C)(C)c1nnc(NC(=O)c2cccs2)s1	0.2	-13	-0.8	6%	-1.4%	-5.0%	4
CCCc1oc2ccc(NS(=O)(=O)c3ccc(OC)cc3)cc2c1C(=O)OCC	1.5	nt	nt	nt	9.2%	0.5%	24
Cc1cccc(CC2CC(=O)N(c3ccccc3)C2=O)c1 (stereo not given)	0.0	-25	0.0	1%	-0.5%	0.7%	42
O=C(CCNc1cccc(F)c1)c1cc2ccccc2o1	-0.1	-6	6.0	-1%	-0.1%	-0.1%	0
CN(C)S(=O)(=O)N1CCC(c2ccc(F)cc2)C(COc2ccc3c(c2)OCO3)C1 (stereo not given)	1.0	-12	-0.1	-2%	0.2%	?	41
O=C(CSC(=S)N1CCCC1)N1CCN(S(=O)(=O)c2cccc(F)c2)CC1	1.0	-15	nt	nt	0.1%	-1.9%	-9
Cc1cccc(C)c1NC(=O)CN(C)C(=O)c1ccccc1SCC(=O)N1CCCC1	0.0	-6	nt	nt	0.1%	-0.8%	-10
COc1ccc(C(=O)NNC(=O)CSc2nnnn2C)cc1	0.5	0	-1.9	11%	1.6%	nt	-11
COc1cccc(-c2cc(=O)c3cc(NC(=O)c4ccccc4)ccc3[nH]2)c1	0.9	1	0.1&2.9	11%&1%	19%	42%	23
COc1ccccc1CNc1nc(-c2ccc3c(c2)OCO3)nc2ccccc12	nt	nt	-1.4	?	16%	nt	nt
Cc1cccn2c(=O)nc(SCC(=O)N3CCCC3)nc12	-0.3	1	nt	nt	2.3%	nt	10
COC(=O)CCC(C)N1CCC(Oc2ccc(C(=O)N3CCCC3)cc2)CC1 (stereo not given)	-0.3	-25	nt	-1%	-0.1%	-0.3%	14
Cc1cc(NC(=O)CSc2ncc(C(=O)Nc3ccccc3)c(=O)n2C)no1	1.9	nt	nt	nt	-1.2%	-4.6%	-8
C/C(=C/Cc1c(O)cc2oc(C)cc(=O)c2c1O)COC1OC(CO)C(O)C(O)C1O (stereo not given)	-0.4	19	4.6	7%	1.1%	-1.4%	10
O=C(NC(=S)Nc1nc(-c2ccc(Cl)cc2)cs1)c1cccs1	1.2	7	3.0	-3%	6.2%	nt	12
O=C(Nc1ccccc1C(F)(F)F)c1noc2c1CCCC2	-1.3	nt	nt	nt	1.1%	-5.5%	16
O=C(COC(=O)/C=C/c1ccc(Br)o1)Nc1ccccc1F	nt	-3	12	4%	nt	nt	nt
Cc1cccc(NC(=S)N2CCC(C(=O)c3ccc(F)cc3)CC2)c1	-0.6	nt	nt	nt	3.1%	nt	-2
O=c1[nH]c(CN2CCCCC2)nc2c1C1(CCCCC1)Cc1ccccc1-2	0.1	nt	2.0	6%	-1.2%	0.6%	2
COc1ccc(CN2CCN(C(=O)c3ccco3)CC2)cc1OCc1ccccc1	0.6	2	-0.1	-17%	-1.1%	-7.6%	0
CC(=O)c1cc(-c2ccccc2)n(CC(=O)NC2CCCCCC2)c1C	0.9	nt	nt	nt	1.9%	0.1%	-26
O=C(O)c1ccccc1NCc1ccco1	0.4	8	1.2	14%	0.5%	3.6%	-12
Clc1ccc(Nc2ccc(-n3ccnc3)nn2)cc1Cl	0.9	1	7.2	-7%	1.1%	-1.6%	-6
Cc1cccc(N(C(=O)c2csnn2)C(C(=O)NC2CCCCC2)c2ccncc2)c1 (stereo not given)	-0.1	5	0.9	1%	-1.0%	nt	-11
COc1ccc(CNC(=O)COC(=O)CCCOc2ccc(Cl)cc2Cl)cc1OC	-0.7	-10	3.4	-4%	1.8%	-2.3%	-21
CSc1ncccc1C(=O)OCC(=O)NCCC1=CCCCC1	0.1	-12	nt	nt	?	0.5%	-6
CCN(CC)CC(O)CN1c2ccccc2Sc2ccccc21 (stereo not given)	-0.2	6	0.4	0%	0.9%	-2.8%	6
CCOc1cc(C)nc(NCc2ccccc2)n1	-0.5	9	0.1	7%	9.1%	-4.1%	3
COc1cccc(-n2nc(C(=O)NCC3CCCO3)c3ccccc3c2=O)c1 (stereo not given)	-1.3	-7	4.6	19%	-1.2%	0.8%	11
COc1ccccc1NC(=O)/C=C/c1cc([N+](=O)[O-])ccc1OC(F)F	0.9	-3	6.4	21%	5.3%	0.3%	31
CCCCN(C)CCCNC(=O)c1ccc2c(c1)N(CC)C(=O)c1ccccc1S2=O (stereo not given)	0.8	6	0.8	8%	2.7%	-2.9%	17
Continuation.
SMILES	TRPML1 ag	TRPV1 PAM	Menin-MLL FL inh	Sfp PPTase inh	PINK1 modulator	ClpP mod	TRPML1 inh
Cc1nc2ccc(S(=O)(=O)NC(C(=O)NCc3ccc4c(c3)OCO4)C(C)C)cc2s1 (stereo not given)	0.1	-5	-0.8	23%	-0.5%	-0.6%	1
O=C(COC(=O)Cc1c(F)cccc1Cl)NCc1ccc2c(c1)OCO2	0.7	nt	nt	nt	-0.9%	1.0%	0
CCOC(=O)N1CCc2c(sc(NCc3cccc(F)c3)c2C(=O)Nc2ccccc2OCC)C1	0.8	nt	nt	nt	2.0%	-2.0%	37
COc1ccc(-n2c(/C=C/c3cccc4ccccc34)nc3ccccc3c2=O)cc1OC	2.1	nt	nt	nt	3.5%	-2.1%	-7
O=C(Nc1ccc(S(=O)(=O)Nc2cnc3ccccc3n2)cc1)c1ccc(Cl)cc1Cl	1.8	nt	nt	nt	4.4%	-23%	27
CN1c2ccccc2N(C)C1c1c(O)ccc2ccccc12	0.4	3	4.8	10%	3.3%[38.3 µM]	-4.1%	20
O=C(NCC(c1ccc2c(c1)OCO2)N1CCN(c2ccc(F)cc2)CC1)c1cccc([N+](=O)[O-])c1 (stereo not given)	1.3	nt	nt	nt	-1.4%	-3.0%	2
COCCNC(=O)c1onc(CSc2ccc(Cl)cc2)c1C(=O)O	-0.8	1	2.4	12%	0.9%	2.0%	-9
Cc1cccc(C)c1Nc1nnc(SCc2cn3cccc(C)c3n2)s1	0.1	-4	9.0	2%	1.8%	0.6%	0
CCCC1(C(=O)OC)NC(c2cccc(F)c2)C2C(=O)N(CC)C(=O)C21 (stereo not given)	0.6	-2	4.2	16%	-0.8%	-0.4%	-9

2 of the compounds above, with values under each structure.
Values run as follows: TRPML1 ag	TRPV1 PAM	Menin-MLL FL inh	Sfp PPTase inh	PINK1 modulator	ClpP mod	TRPML1 inh
- O=C(Nc1ccc(S(=O)(=O)Nc2cnc3ccccc3n2)cc1)c1ccc(Cl)cc1Cl
    1.8	nt	nt	nt	4.4%	-23%	27
- CN1c2ccccc2N(C)C1c1c(O)ccc2ccccc12
    0.4	3	4.8	10%	3.3%[38.3 µM]	-4.1%	20

Remaining list, next part
SMILES	TRPML1 ag	TRPV1 PAM	Menin-MLL FL inh	Sfp PPTase inh	PINK1 modulator	ClpP mod	TRPML1 inh
NC(N)=Nc1nc(C2COc3ccccc3O2)cs1 (stereo not given)	0.8	0	6.3	2%	0.7%	nt	-8
COCCn1c(SCC(=O)Nc2ccc(NC(=O)c3ccco3)c(OC)c2)nc2ccccc2c1=O	0.0	1	1.9	-10%	?	-65%	-5
Nc1c(-c2nc(-c3cccs3)no2)nnn1-c1ccc(Cl)cc1	0.4	nt	nt	nt	2.7%	0.8%	-2
COCCn1c(N)c(Sc2ccc([N+](=O)[O-])cc2)c(=O)[nH]c1=O	0.2	-7	3.5	20%	-0.7%	nt	-8
CCCOc1ccc(C(=O)Nc2ccc(NC(=O)c3ccccc3)c(C)c2)cc1	1.8	nt	nt	nt	2.0%	14%	21

Screening data: PubChem, National Center for Advancing Translational Sciences (NCATS)
